# Assay outcomes deposited in PubChem by National Center for Advancing Translational Sciences (NCATS).
# Menin MLL FP FL: menin-MLL binding inhibition, fluorescein peptide; Fluorescence polarization, fluorescein-MLL peptide displacement from menin; FP activity change, % at 61.4 µM; 290,000 tested, under 10 active; inconclusive = falling polarisation curve, or a change in total fluorescence; inactive = total fluorescence flat and polarisation flat or rising; no compound was filed as active; the % refers to the polarisation; negative = inhibition;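 also: % of control where 0% means no effect; inhibitors lower the polarisation; unlabelled MLL peptide was the positive control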
# gsp antag: gsp mutant antagonism | gsp-mutant cells, cAMP HTRF, 30 min; control for the full effect not named in the record | Potency, µM (top dose mostly 76.9 µM), for the others: at the highest dose activity change, negative = inhibition, usual class: inhibitors | 0.4% of 340,000 active | AID 624288; active = falling curve of any shape with a large fitted effect; inconclusive = falling curve, mostly with a smaller effect; inactive = flat or rising curve; cell line not stated here;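 also: intracellular cAMP measured with PDE inhibitor Ro 20-1724 present during compound exposure; potency is read from the fitted curve at half-maximal effect; % is scaled to controls: 0 for no effect and ±100 for the full control effect; nearly all actives have a fitted effect of over 65% in size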
#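 HTRF cAMP read-out (cAMP-d2 plus anti-cAMP antibody-K in lysis buffer, 30 min RT). Before lysis, cells are exposed to compounds with […] for 30 min at 37C in DPBS containing Ca/Mg, BSA and Tween 20.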
# gsp ag: activates gsp, the McCune-Albright syndrome mutation; Potency, µM (series often up to 76.9 µM), inactives show at the highest dose activation (cAMP increase), actives largely listed as activators; 0.13% of 340,000 active; gsp mutant cells, cAMP HTRF, 30 min; control for the full effect not named in the record; active = well fitted activation curve with a large enough effect; inconclusive = small, poorly fitted or top-dose-only effect, or another doubt; inactive = no such curve, though single readings can be large or run the other way; cell line not stated here;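 also: phosphodiesterase inhibitor Ro 20-1724 added with compounds to block cAMP breakdown; potency is read from the fitted curve at half-maximal effect; nearly all actives have a fitted effect of over 60% in size; about a fifth of the inactives were tested at one dose only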
#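 Cells in DMEM/10% FBS with G418 were pretreated with compounds in DMSO plus […] (300 uM stock) for 30 min at 37C. cAMP was measured by HTRF (cAMP-d2 plus anti-cAMP antibody-K) after 30 min at room temperature.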
# ClpP mod: qHTS Assay for Activators of ClpP; ATP-dependent Clp protease proteolytic subunit (Bacillus subtilis (strain 168)), P80244; purified B. subtilis ClpP, FRET peptide cleavage, 20 min; Potency, µM (titrated, usually from 57.5 µM), inactives show at the top dose activity change, negative = active; 1.9% of 340,000 active; AID 651965, 2013; active = well fitted falling curve with a large enough effect; inconclusive = small, poorly fitted or top-dose-only effect; inactive = no such curve, though single readings can be large or run the other way; also: potency is read from the fitted curve at half-maximal effect; the source files actives as falling curves though it sought activators and does not explain the sign; nearly all actives have a fitted effect of over 65% in size; many hits overshoot -100%
# Target sequence (P80244 whole entry, looked up): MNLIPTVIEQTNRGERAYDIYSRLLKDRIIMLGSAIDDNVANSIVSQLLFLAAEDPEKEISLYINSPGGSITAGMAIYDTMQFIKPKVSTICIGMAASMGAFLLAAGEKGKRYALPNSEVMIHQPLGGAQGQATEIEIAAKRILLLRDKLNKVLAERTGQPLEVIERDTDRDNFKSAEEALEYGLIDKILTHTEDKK
#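 Buffer: 100 mM Tris/HCl pH8, 100 mM KCl, 0.05% low protease BSA, 2.5% glycerol, 0.01% Tween-20. ClpP 10 microg/mL final; 20 min RT; delta FRET normalized to ADEP and DMSO controls.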
# TRPML1 agonist: activates the human TRPML1 channel; Q9GZU1; TRPML1-expressing cells, Ca2+ dye fluorescence, FDSS; host cell line not named in the record; reference of the full effect not given here; activation, % (concentration not given with the values); 0.12% of 410,000 active; AID 624414; in the data active = activation above about 50%; inconclusive = about 30% to 50%; inactive = below about 30%; also: 0% is about no effect; the text of the record puts the active cut at 80%
# Target sequence (Q9GZU1 whole entry, looked up): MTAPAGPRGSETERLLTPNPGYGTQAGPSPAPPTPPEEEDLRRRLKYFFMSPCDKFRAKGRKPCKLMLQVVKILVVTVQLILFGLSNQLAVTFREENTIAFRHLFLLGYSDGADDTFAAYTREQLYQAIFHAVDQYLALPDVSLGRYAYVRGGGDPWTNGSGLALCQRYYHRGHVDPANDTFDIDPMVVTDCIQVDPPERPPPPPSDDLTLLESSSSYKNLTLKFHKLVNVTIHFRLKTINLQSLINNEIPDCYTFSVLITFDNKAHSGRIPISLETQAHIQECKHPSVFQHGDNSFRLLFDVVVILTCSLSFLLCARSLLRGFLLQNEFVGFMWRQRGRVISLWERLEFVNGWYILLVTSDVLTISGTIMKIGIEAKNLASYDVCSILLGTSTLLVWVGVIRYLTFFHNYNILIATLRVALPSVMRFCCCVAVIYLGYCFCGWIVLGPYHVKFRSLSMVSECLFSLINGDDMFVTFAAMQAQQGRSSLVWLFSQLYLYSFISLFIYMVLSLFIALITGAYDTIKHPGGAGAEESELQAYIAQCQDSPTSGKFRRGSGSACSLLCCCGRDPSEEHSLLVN
#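 TRPML1-DL cells, Tet-induced overnight (~16 h, 37 degrees C), loaded 45-90 min at room temperature with Ca8 no-wash calcium dye plus quencher. FDSS fluorescence: 10 s baseline, compound pin-transfer, 110 s agonist read, then EC80 54-4 (4uM final) and 110 s antagonist read.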
# TRPML1 blocker: inhibitors of human TRPML1 channel | activity change, negative = inhibition, % (test concentration not listed) | 0.02% of 390,000 active | Q9GZU1 | TRPML1-inducible cells, Ca2+ dye fluorescence, FDSS; stronger effect = lower value; inhibition of EC80 agonist-evoked calcium signal | AID 624415; in the data active means activity change below about -50%; inconclusive means about -30% to -50%; inactive means above about -30%;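 also: stimulus is agonist 54-4 at its EC80 concentration; % is scaled to controls: 0 for no effect and ±100 for the full control effect; compound concentration not given in the record; the text of the record puts the active cut at -80%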
#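 Calcium fluorescence in TRPML1-DL cells induced overnight with Tet: a 110 s read after compound pin addition, then a 110 s antagonist read after challenge with 54-4 at 4 uM final (EC80).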
# An asterisk follows results filed as active; u = inconclusive; x = not tested or not shown; & = joins results of further samples; [ ] = remark or other dose.
# Values run as follows: Menin MLL FP FL, gsp antag, gsp ag, ClpP mod, TRPML1 agonist, TRPML1 blocker
CC(=O)NC1(c2ccccc2)CCN(c2nc(C)cc(C)n2)CC1
 : 1.6, 11%, 10%, u, -0.7, 0
Cn1ncc2c(NNC(=O)Cc3cccc4ccccc34)ncnc21
 : -1.3, 9%, -7%, 1.1%, -0.5, -5
CC(C)CCn1c(CN2CCOCC2)nc2c1c(=O)n(C)c(=O)n2C
 : 2.5, -4%, -16%, -1.3%, 0.0, 0
Cc1cccc(C(=O)NCC(c2ccc3c(c2)OCO3)N2CCOCC2)c1 (stereo not drawn)
 : x, x, x, -3.0%, 1.1, 6
COc1cc(NC(=O)CSC(=S)N2CCCC2)c(OC)cc1Cl
 : x, -17%, -11%, 1.4%, 1.3, -4
Cc1ccc2cc3c(NC(=O)CC(C)C)nn(C)c3nc2c1
 : -1.1, 8%, -29%, -2.8%, -0.3, -6
CCc1c(C)nc2c(-c3ccccc3)c(-c3ccccc3)[nH]n2c1=O
 : -6.3, -3%, 18%, -12%, x, x
O=C(NNC(=S)Nc1ccc(OC(F)F)cc1)c1cc2c(s1)CCCC2
 : 4.1, 8%, -25%, 34%, 0.1, 10
CCOc1ccc(C(=O)NNC(=O)CN2C(=O)C3CC=CCC3C2=O)cc1OC (stereo not drawn)
 : x, 5%, 4%, -9.1%, 0.1, -8
NC(=O)C1CCN(C(=O)c2ccc3c(=O)n(Cc4ccco4)c(SCC(=O)c4ccccc4)nc3c2)CC1
 : -1.5, -5%, -11%[15.4 µM], -1.8%, 0.3, 13
O=C(Nc1nnc(SCc2ccc(Cl)cc2)s1)C1CC(=O)N(Cc2ccccc2)C1 (stereo not drawn)
 : 3.6, -5%, -89%, -1.6%, 1.4, 0
C/C(=N/NC(=O)CNc1ccc(Cl)cc1C)c1ccc(C)cc1
 : 1.5, 6%, 3%[15.4 µM], x, 2.2, 80
CCCC(=O)Nc1nnc(SCC(=O)NCc2ccc3c(c2)OCO3)s1
 : 0.3, 9%, -3%[15.4 µM], -0.3%, -0.4, 47
CCN(CCn1cccn1)C(=O)CCc1nnc(C2CCCCC2)o1
 : 5.7, -6%, -30%, 1.1%, x, x
CCOc1cc(C(=O)Nc2ccc(S(=O)(=O)N3CCCCC3)cc2)ccc1OCC(=O)N1CCOCC1
 : x, -11%, -56%[inhibitor], -3.0%, 0.3, -2
Cc1ccc(N=C2NC(=O)/C(=C/c3cccn3C)S2)cc1
 : u, -5%, -4%, 0.2%, 1.4, -9
CN1CCN(C(=O)c2ccccc2-c2nc(-c3ccc(Cl)cc3)no2)CC1
 : 0.1, -2%, -53%[inhibitor], 0.0%, -0.2, 24
O=C(CN1CCN(C(=O)c2ccc(-c3nc4ccccc4s3)o2)CC1)Nc1ccc(F)cc1
 : x, 45µM*, -51%[inhibitor], 2.5%, 1.7, 12
CCC1(CC)C(=O)C2=C3C1[C@H](C(=O)OC)C=C(C(=O)OC)C[C@H]3[C@H]1C(=O)NC(=O)[C@H]1[C@H]2C (stereo partly drawn)
 : -1.9, -1%, x, 2.1%, -0.5&0.6, 0&-5
CC(=O)c1ccc(NC(=O)C2=CC(c3ccc(C)cc3)=NS(=O)(=O)N2C)cc1
 : x, x, x, -0.9%, -0.2, -4
CN(CC(=O)Nc1ccc(Cl)c(C(F)(F)F)c1)C(=O)Cn1cc([N+](=O)[O-])ccc1=O
 : x, u, 12%, -0.8%, 1.0, 29
NC(=O)C1CCN(c2nc3c(S(=O)(=O)c4ccccc4)nnn3c3ccccc23)CC1
 : x, -2%, u, -3.8%, 2.3, 5
COCCn1c(SCC(=O)Nc2ccccc2F)nc2c(c1=O)SCC2
 : x, 6%, 2%, -0.8%, 0.9, -3
CCNc1nc(NCC)nc(N/N=C/c2ccc(OC)cc2)n1
 : 0.3, -3%, -1%, -0.8%, -1.0, -9
CC(=O)Nc1cccc(C(=O)Oc2cccc(C)c2)c1O
 : -0.6, -32%, -61%[inhibitor], 43%, -0.6, -6
CCCCCn1c(SCc2ccncc2)nc2cc(C(=O)NCc3ccco3)ccc2c1=O
 : 3.2, -2%, 31%, -12%, 0.5, 2
c1ccc(NCc2ccncc2)cc1
 : 0.4, 5%, u, -2.5%, -0.2, -8
CC(C)NC(=O)c1ccccc1NC(=O)C1CC(=O)N(C(C)C)C1 (stereo not drawn)
 : -5.9, 4%, -5%, x, -0.8, 7
CCCCN(CCCC)C(=S)N/N=C/c1c(C)[nH]n(-c2ccccc2)c1=O
 : -0.1, -8%, -11%, -11%, 0.1, -6
Cc1ccc(NC(=S)N2CCCC(O)C2)cc1 (stereo not drawn)
 : -1.8, 7%, -8%, x, -0.1, 1
CC(/C=N/NC(=O)c1cnccn1)=C\c1ccco1
 : -0.7, 3%, -4%[15.4 µM], x, -0.3, 2
CCOc1ccc(N2CC(C(=O)NCC(=O)Nc3ccc(F)c(F)c3F)CC2=O)cc1 (stereo not drawn)
 : x, 2%, -37%[inhibitor], -0.4%, 2.7, 23
O=C(CSCc1cccc(CSCC(=O)Nc2ccccc2)n1)Nc1ccccc1
 : -0.1, -4%, 11%, -0.2%, 2.7, 15
CCOc1ccc(Cn2c(-c3ccc(OCC)c(OC)c3)nc3ccccc32)cc1OC
 : x, x, x, -9.8%, 0.8, 5
CC(C)(C)NC(=O)CN1CCC(O)(c2ccccc2)CC1
 : 1.9, -3%, -36%[inhibitor], 0.1%, 0.1, 1
C=CCN(CC=C)S(=O)(=O)c1ccc(NC(=S)NC(=O)/C=C/c2cccc3ccccc23)cc1
 : x, 2%, 1%, -12%, 1.0, -11
Cc1cc(C)c(NC(=O)CCC(=O)N2Cc3ccccc3Oc3ncccc32)c(C)c1
 : x, x, x, 1.0%, 0.0, -17
COc1ccc(-c2cc(C(F)(F)F)c(C#N)c(SCC(=O)Nc3ccccc3F)n2)cc1
 : x, x, x, 4.5%, 4.9, -11
O=C(NNc1ccccc1)NC(Cc1ccccc1)C(=O)O (stereo not drawn)
 : x, 6%, -2%, -1.2%, -0.2, 7
O=C(NCC1CCCO1)c1nc2c(nnn2Cc2ccccc2Cl)c(=O)[nH]1 (stereo not drawn)
 : -0.1, -19%, 8%, -0.5%, 0.1, 4

# Single records, as listed above. Screens in order: Menin MLL FP FL | gsp antag | gsp ag | ClpP mod | TRPML1 agonist | TRPML1 blocker
# Entry for COCCn1c(SCC(=O)Nc2ccccc2F)nc2c(c1=O)SCC2 → x | 6% | 2% | -0.8% | 0.9 | -3
# Entry for O=C(NCC1CCCO1)c1nc2c(nnn2Cc2ccccc2Cl)c(=O)[nH]1 (stereo not drawn) → -0.1 | -19% | 8% | -0.5% | 0.1 | 4
# Entry for NC(=O)C1CCN(c2nc3c(S(=O)(=O)c4ccccc4)nnn3c3ccccc23)CC1 → x | -2% | u | -3.8% | 2.3 | 5

# Carrying on.
# Values run as follows: Menin MLL FP FL, gsp antag, gsp ag, ClpP mod, TRPML1 agonist, TRPML1 blocker
Cc1ccc(N2C(=O)CC(c3ccccc3F)C3=C2COC3=O)cc1Cl (stereo not drawn)
 : x, x, x, -0.1%, 0.5, -1
C=CCOC(=O)C1=C[C@@H](c2ccc(Br)cc2)C[C@@H](OCc2ccc(CO)cc2)O1
 : 1.8, -3%, x, -3.7%, -0.2, 15
Cc1cc(NC(=O)CSc2nc(C)c(C)n2CC(C)C)no1
 : x, 3%, -1%, x, 3.7, -9
CN(C)CC[C@@H](c1ccc(Cl)cc1)c1ccccn1
 : 3.5&2.1&3.9, 10%, x, 1.2%, -0.4, 13
Cn1cccc1/C=N/NC(=O)C(O)c1ccccc1 (stereo not drawn)
 : -0.7, 6%, -5%, -1.4%, 0.7, -10
CC1=Nc2cc(C(=O)NC(C)C)ccc2Sc2ccc(C)cc21
 : x, x, x, 0.3%, -0.5, -13
Nc1nonc1C(=O)N/N=C/c1cc2c(cc1[N+](=O)[O-])OCO2
 : x, 6%, 26%, x, -0.1, 6
CCC(C)C1C(C#N)=C(N)Oc2n[nH]c(-c3ccccc3)c21 (stereo not drawn)
 : -2.0, -20%, -1%, 1.0%, -1.4, -2
O=C(Oc1ccccc1C(=O)N1CCOCC1)c1cccc(Br)c1
 : 2.4, -7%, -25%, -5.8%, 1.4, 4
N#Cc1cc(-c2ccccc2)nnc1Sc1ccccc1
 : 5.5, 2%, 3%, -0.7%, -1.0, -18
CCOC(=O)C1CCN(C(=O)c2ccco2)CC1
 : 1.8, 4%, 27%, -0.9%, -1.0, 8
COC(=O)c1ccc(C)c(NC(=O)c2c(-c3ccccc3)noc2C)c1
 : -0.9, -2%, -1%, -0.1%, 0.8, -3
Cc1cccc(/C=N/NC(=O)Cc2ccc(Cl)cc2)c1O
 : 5.0, 9%, 4%, 0.6%, x, x
COCCNC(=O)c1cc2cc3ccc(OC)cc3nc2o1
 : 0.6, -7%, u, 4.2%, -0.6, 3
CC(C)CN1C(=O)c2ccc(NC(=O)c3ccco3)cc2C1=O
 : 5.2, 6%, 0%[15.4 µM], x, -0.3, -6
NCCCC[C@H]1CNC(=O)C(=O)N1CCc1cccc(F)c1
 : 2.5, 18%, 8%, -0.1%, 0.0, 11
Cc1cc(=O)[nH]c(-c2ccccc2)n1
 : -1.9, 7%, 3%, -0.6%, -0.4, 5
CCN(CC)CCn1c(NCc2ccc3c(c2)OCO3)nc2ccccc21
 : 1.2, 1%, -14%, 0.1%, 0.2, 7
COc1ccccc1N(CC(=O)NCc1ccco1)S(=O)(=O)c1ccc(C)cc1
 : 0.6, -5%, 3%[15.4 µM], x, 1.0, 3
CCc1cccc(NC(=O)Cn2nc(CC)n3c(cc4cc(C)ccc43)c2=O)c1
 : x, x, x, u, -1.1, -21
Cc1c(C(=O)Nc2cccc(C(F)(F)F)c2)oc2ccc(S(=O)(=O)N3CCOCC3)cc12
 : 4.1, u, u, 95%, 0.7, -7
Nc1ncnc2c1ncn2[C@@H]1O[C@H](C(=O)N2CCN(Cc3ccccn3)CC2)[C@@H](O)[C@H]1O
 : x, x, x, -0.8%, 0.1, 19
COc1ccc(-c2cc(C(=O)Nc3c(C)nn(Cc4ccccc4)c3C)no2)cc1
 : 2.1, 11%, 6%, -3.7%, 0.8, 10
CCOc1ccccc1NC(=O)Nc1ccccc1OCc1cc(=O)n2ccccc2n1
 : x, x, x, 35%, 1.0, 20
Cc1ccc(NC(=O)N2CCN(c3nnc(C)c4c(C)n(-c5ccccc5)nc34)CC2)c(Cl)c1
 : x, x, x, -8.7%, 2.5, 13
O=C(Cn1ncc2c1-c1ccccc1OC2)N1CCN(Cc2ccc3c(c2)OCO3)CC1
 : 6.6, -12%, 14%, -0.5%, 0.1, -1
